High-throughput results deposited in PubChem BioAssay by several laboratories.
CBX7 AlphaScr: blocks human CBX7 binding to H3K27me3 peptide; O95931; AlphaScreen His6-CBX7 / biotin-H3K27me3 peptide binding; active compounds read low; normalised signal (fraction of DMSO) (no concentration beside the values); actives 1.1% (n = 66,000); in the data active means normalised signal below about 0.5;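 further: 100 nL library stock added to about 20 µL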
Target sequence (O95931 whole entry, looked up): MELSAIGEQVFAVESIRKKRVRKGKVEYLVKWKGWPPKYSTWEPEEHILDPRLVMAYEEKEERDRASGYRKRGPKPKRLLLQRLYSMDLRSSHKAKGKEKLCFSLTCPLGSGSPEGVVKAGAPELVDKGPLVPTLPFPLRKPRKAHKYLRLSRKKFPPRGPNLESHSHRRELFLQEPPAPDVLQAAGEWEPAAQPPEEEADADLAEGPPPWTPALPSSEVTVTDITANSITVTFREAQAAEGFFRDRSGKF
CBX7 AlphaScr z-score: also measured in CBX7 AlphaScr; calls as there; z-score; measured here: z-score of CBX7 signal; some inactives read as strong as hits; reference of the scale not given here;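 same signal on another scale; lower means less binding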
Starred values were filed as active, the others as inactive; & = joins results of further samples; ! = repeats disagree. This is a subset; rates above refer to the full screens.

structure,CBX7 AlphaScr,CBX7 AlphaScr z-score
CN(C)Cc1ccc2c3c1c1c(n3CC(=O)N2C)CCCC1,1.1,0.72
O=C(CN1C(=O)CSc2ncccc21)NC1CCN(Cc2ccccc2)CC1,1,0.11
NC(=O)c1c(NC(=O)c2ccc(Cl)cc2)sc2c1CCCC2,1.3,2.9
Cc1cccc2c1-c1sc(C(=O)Nc3ccc(F)cc3F)cc1CO2,1.3,8.7
CC1CCN(c2nc3ccc(C(=O)N4CCN(Cc5ccccc5)CC4)cc3s2)CC1,1.2,2
CC1CCCCC1NC(=O)Cn1nc(Cc2ccncc2)c2ccccc2c1=O (stereo not drawn),1.1,1.1
CS(=O)(=O)c1ccc2nc(NC(=O)c3cccc(Cl)c3)sc2c1,1,0.55
CCC(C)Sc1oc(-c2ccc(F)cc2)nc1S(=O)(=O)c1ccc(C)cc1 (stereo not drawn),1,-0.0011
CNS(=O)(=O)c1cc(-c2nnc(Nc3ccc(C(=O)N(C)C)cc3)c3ccccc23)ccc1C,0.96,-0.95
CCn1ccnc1C(O)c1ccc(OCc2ccccc2)c(OC)c1 (stereo not drawn),0.93&0.82,-1.7&-0.7
COc1cccc(CNC(=O)C2CCCN2S(=O)(=O)c2ccc3c(c2)CCC(=O)N3)c1 (stereo not drawn),0.97,-0.54
O=C(CC1(O)C(=O)N(Cc2ccc(Cl)cc2)c2ccccc21)c1ccccn1 (stereo not drawn),0.96,-0.04
Cc1cccc2nc(-c3cccc(NC(=O)C(C)C)c3)cn12,0.96,-0.72
CCCOc1ccc(N2C(=O)CC(NCCc3ccc(Cl)cc3)C2=O)cc1 (stereo not drawn),1.1&1,4.2&1.4
CN1C(=O)CSc2ccc(NC(=O)N3CCN(c4ccccc4)CC3)cc21,0.92,-4.1
Cc1oc(-c2ccc(Cl)cc2)nc1CN1CCC(C(=O)N2CCCCC2)CC1,1,0.61
Cc1ccc(-c2[nH]c(-c3ccc(Br)cc3)nc2SCC(=O)Nc2nccs2)cc1,1.1,0.94
O=C(CN1C(=O)CC(c2ccccc2)Sc2ccccc21)Nc1cccc(Cl)c1 (stereo not drawn),0.98,-0.33
COc1ccc(-n2c(Cc3cc(=O)[nH]c(=O)[nH]3)nnc2SCc2c(F)cccc2Cl)cc1,1.1,0.11
COc1ccccc1-n1cnc2cc(C(=O)NC3CCCCCC3)ccc21,0.88,-1.5
Cc1ccc(C)c(NC(=O)c2cnn(-c3ccc(C)c(C)c3)c2C2CCNCC2)c1,0.94,-1.2
Cc1ccc(S(=O)(=O)c2nc(C(C)(C)C)oc2NCc2ccccc2)cc1,0.92,-1.2
CCCNC(=O)c1ccc2c(c1)N(Cc1cc(C)ccc1C)C(=O)c1ccccc1S2=O (stereo not drawn),1,0.21
O=C(Nc1nnc(COc2ccc(Cl)cc2)s1)c1ccc(F)cc1,1,0.44
COc1cccc(-n2c(/C=C/c3c(C)[nH]c4ccccc34)nc3ccccc3c2=O)c1,0.97,-1.1
Cc1ccc2[nH]c(C)c(CCNS(=O)(=O)c3ccc(F)cc3)c2c1,0.45*,-0.54*
Cc1ccn2c(NC(=O)C3CCCCC3)c(-c3ccc(F)cc3)nc2c1,1,0.74
COc1ccc(CCNC(=O)CNC(=O)Cn2ccc3ccccc3c2=O)cc1OC,1,0.48
CC1(C)CC(=O)c2c(nn(-c3ccccc3)c2-c2ccc(Cl)cc2)C1,1,0.18
Cc1sc2ncnc(NCCc3ccccc3)c2c1C,0.98,-0.33
Cc1c(C(=O)Nc2ccc(F)c(F)c2)oc2ccc(S(=O)(=O)N3CCC4(CC3)OCCO4)cc12,1,0.47
COc1ccc(C2C3=C(CCCC3=O)Nc3ccccc3N2C(C)=O)cc1OC (stereo not drawn),1,0.055
CCOc1ccccc1CNC(=O)c1ccc2c(c1)N(CC)C(=O)c1ccccc1S2,0.85,-2.7
C=CCNC(=O)c1cc(-c2ccc(OC)c(OC)c2)on1,1.2,1.7
COC(=O)c1ccc(NC(=O)C(=O)c2c(-c3ccccc3)cc3ccccn23)cc1,0.99,-0.14
Cc1cc(=O)oc2c(CN3CCCCCC3)c(O)ccc12,1,1.1
O=C(Nc1cccc(-c2cn3ccccc3n2)c1)c1ccccc1Br,1,0.37
Cc1nc2c(C(=O)NCc3ccccc3)cnn2c(C)c1Cc1ccc(Cl)cc1,1,0.84
Cc1ccc(NS(=O)(=O)c2ccc3[nH]c(=O)c(=O)[nH]c3c2)c(Br)c1,0.89,-0.14
COc1ccccc1CNC(=O)c1ccc2nc(-c3ccccc3NC(C)=O)c(=O)[nH]c2c1,1,0.82
Cc1ccc(N(C)C(=O)C2CCCN2S(=O)(=O)c2ccc3c(c2)n(C)c(=O)c(=O)n3C)cc1 (stereo not drawn),1.1,1.1
COCCN(CCOC)S(=O)(=O)c1ccc(C(=O)Nc2nc(-c3ccccc3)c(C(C)=O)s2)cc1,1.2,3.1
Cc1nn(C)c(C)c1S(=O)(=O)N1CCCC(C(=O)Nc2cccc(C(F)(F)F)c2)C1 (stereo not drawn),1.1,1.6
COc1cccc(NC(=O)CSc2nnc(CNC(=O)c3cccs3)o2)c1,1,0.85
CCC(C)NC(=O)CN1C(=O)COc2ccccc21 (stereo not drawn),1.1,0.78
Cc1oc(-c2ccccc2Cl)nc1CSCC(=O)O,1,0.77
O=C(c1cc(-c2cccc(Cl)c2)on1)N1CCN(c2ccccc2)CC1,1.1,2.1
COc1ccc(C(C(=O)NC2CCCCC2)N2CCCCC2)cc1 (stereo not drawn),0.97,-0.87
COc1ccc(N2CCN(CC(O)COc3c(C)cc(C)cc3C)CC2)cc1 (stereo not drawn),1.2,1.5
Cn1nc(-c2ccc(Cl)cc2)c2cc(C(=O)NCc3ccc4c(c3)OCO4)sc21,1.1,0.49

Carrying on.
structure,CBX7 AlphaScr,CBX7 AlphaScr z-score
COc1ccccc1-c1cc2nc(C)c(CCC(=O)NCCC3=CCCCC3)c(C)n2n1,0.97,-0.52
COCc1nnc(NC(=O)c2ccc3c(c2)OCO3)s1,1.1,2
CC(C)OCCCNC(=O)c1cn(C2CCCCC2)c(=O)c2c1c1ccccc1n2C,0.97,-0.82
CCN(Cc1ccccc1)C(=O)Cc1c(C(=O)O)[nH]c2ccc(Cl)cc12,1.3,3.3
COc1ccccc1C(=O)c1nc(-c2ccccc2)no1,1,0.57
CCn1cc(C(=O)N2CCCCC2)c(=O)c2ccc(C)nc21,1.1,0.98
Cc1oc(-c2cccc(Cl)c2)nc1CN1CCCC(C(=O)NCc2ccc(F)cc2)C1 (stereo not drawn),0.84,-2
CCOc1ccc(C2C(N3C(=O)c4ccccc4C3=O)C(=O)N2c2cccc(Cl)c2)cc1 (stereo not drawn),0.99,-0.27
O=C(CC1(O)C(=O)Nc2ccc(Cl)cc21)c1ccccc1 (stereo not drawn),1,0.6
Cc1ccc(CNC(=O)C2CCN(C(=O)c3cc4sccc4n3Cc3ccc(F)cc3)CC2)cc1,1,0.43
COc1ccc(CCCc2nnc(SCC(=O)Nc3cc(F)ccc3C)o2)cc1,0.96,-0.47
Fc1ccc(Nc2nc(-c3ccccc3)cs2)cc1,1.3,3
Cn1cc(CCC(=O)NCc2ccc3c(c2)OCO3)c2ccccc21,1,0.76
CCN1CCN(c2ncc(C(=O)NC3CCCCC3)c3ccccc23)CC1,1.5,1.1
COc1ccc(CCn2c(=O)c3cccnc3n(Cc3cccc(C(F)(F)F)c3)c2=O)cc1OC,0.98,-0.4
O=C(c1ccc2c(c1)N(Cc1ccc(F)cc1)C(=O)c1ccccc1S2(=O)=O)N1CCCC1,0.99,-0.26
Cc1ccc(C(=O)N(Cc2nc(-c3ccccc3)no2)C(C)C)cc1Cl,1,0.74
O=C(C1CCCN(Cc2ccccc2)C1)N1CCCCCC1 (stereo not drawn),1,0.53
Cc1ccc(C)c(-c2csc(Nc3ccc(C)c(Cl)c3)n2)c1,0.37*!,-11*!
CCN1CCCC1CNC(=O)c1cn(CCOC)c(=O)c2c1c1ccccc1n2C (stereo not drawn),1.1,1.6
Cn1c(=O)c(=O)n(C)c2cc(S(=O)(=O)NCc3ccccc3)ccc21,1.2,1.6
Cc1cc(=O)n2nc(N3CCC(C(=O)NCc4cccc(Cl)c4)CC3)sc2n1,1,2.1
CCCOc1ccc(Cn2c(CC(C)C)nc3ccccc32)cc1,1.2,1.9
Cc1ccc(C)c(N2CCN(C(=O)c3ccc4nc(N5CCOCC5)sc4c3)CC2)c1,1,0.18
Cc1ccc(C)c(NC(=O)c2sc3ncn(C)c(=O)c3c2C)c1,1.1,2.5

3 entries from above, reformatted.
> O=C(C1CCCN(Cc2ccccc2)C1)N1CCCCCC1 (stereo not drawn)
- CBX7 AlphaScr: 1
- CBX7 AlphaScr z-score: 0.53

> Cc1ccc(C)c(-c2csc(Nc3ccc(C)c(Cl)c3)n2)c1
- CBX7 AlphaScr: 0.37*!
- CBX7 AlphaScr z-score: -11*!

> CCN1CCCC1CNC(=O)c1cn(CCOC)c(=O)c2c1c1ccccc1n2C (stereo not drawn)
- CBX7 AlphaScr: 1.1
- CBX7 AlphaScr z-score: 1.6

(cont.)
structure,CBX7 AlphaScr,CBX7 AlphaScr z-score
Cc1cc(N2CCN(c3ncccn3)CC2)nc2ccc(NC(=O)c3ccc(F)cc3)cc12,1.1,0.38
CCCN1Cc2cccc(C(=O)Nc3ccc(OCC)cc3)c2C1=O,1,0.043
Cc1ccc(-c2nn(CCC(=O)Nc3ccc(C)cc3C)c(=O)c3ccccc23)cc1,1,0.52
COC(=O)c1ccc(C(=O)Nc2ccc(S(=O)(=O)Nc3cc(OC)nc(OC)n3)cc2)cc1,0.94,-1.4
CCC(=O)Nc1cc(-c2nn3c(C)nnc3s2)ccc1C,1,0.22
COc1ccccc1NC(=O)CSc1nccn1-c1ccc(F)cc1,0.66,-1.2
CCOC(=O)N1CCC(Nc2c(NC(CC)Cc3ccccc3)c(=O)c2=O)CC1 (stereo not drawn),1,0.44
Cc1nc2c(C(=O)NCc3cccnc3)c[nH]n2c(=O)c1Cc1ccc(F)cc1Cl,1,0.32
COc1cc(Cl)c(C)cc1NC(=O)CNC(=O)Cn1ccc2ccccc2c1=O,1.4,3.2
CCCCNC(=O)c1cc2c(s1)-c1ccccc1OC2,1.2,8.8
O=C(NCC1CCCO1)c1ccc2c(=O)n3c(nc2c1)CCCCC3 (stereo not drawn),1,0.0042
Nn1cnn2c(SCC(=O)Nc3nnc(SCC(=O)Nc4ccc(S(N)(=O)=O)cc4)s3)nnc12,1,0.77
O=C(NCC1CCCO1)C1c2ccccc2C(=O)N1CCc1ccccc1 (stereo not drawn),1.1,0.07
CCN(C(=O)c1ccc2c(=O)n3c(nc2c1)CCCCC3)c1cc(OC)ccc1OC,0.83,-2.8
Clc1ccc(-c2nc(-c3ccncc3)no2)cc1,1.1,0.53
CCCCNC(=O)c1cc(=O)[nH]c2ccc(Br)cc12,1.1,1.4
CCOc1ccc(NC(=O)Cn2ncc3c2-c2cc(C)ccc2OC3)cc1,1,0.99
CC(C)CCNC(=O)c1cc(=O)n(Cc2ccc(Cl)cc2)c2ccccc12,1,-0.056
Cc1ccc(Cl)cc1N(C)C(=O)Cn1ncc2c1-c1ccccc1OC2,0.93,-2
COc1ccc(CNc2nc(SCC(=O)Nc3cc(C)[nH]n3)nc3ccccc23)cc1,0.37*,-1.8*
N#Cc1cccc(NC(=O)NCCCN2CCN(c3cccc(Cl)c3)CC2)c1,1.1,2.1
COc1ccc(C2C(C(=O)NC3CCCCC3)c3cc(OC)c(OC)cc3C(=O)N2C)cc1 (stereo not drawn),1,0.13
Cn1c(SCC(=O)Nc2ccc(Br)cc2)nnc1-c1cccnc1,0.99,-0.26
Cc1sc2ncn(CC(=O)NCC(=O)NCCCN3CCOCC3)c(=O)c2c1C,1.1,0.74
C=CCn1c(SCC(=O)Nc2ccccc2)nnc1-c1cccnc1,1,1.2
CC(NC(=O)c1ccc(F)cc1)c1nc2ccccc2n1C (stereo not drawn),0.91,-1.1
CCOc1ccc(-c2nc(CSCC(=O)NCCc3ccc(Cl)cc3)c(C)o2)cc1,0.78,-3
CCOC(=O)c1ccccc1NC(=O)c1sc2ncn(CC(=O)N3CCOCC3)c(=O)c2c1C,0.98,-0.77
O=C(c1ccccc1)N1CCn2c1nc1ccccc12,0.95,-1
Cc1cc(Nc2cccc(F)c2)nc(NCc2ccccc2)n1,0.92,-0.26
Cc1ccc(NC(=O)c2c(-c3ccccc3)noc2C)nc1,1.5,2
CCN1CCCc2cc(CN(CCN3CCOCC3)C(=O)Nc3ccc(C)c(C)c3)ccc21,0.22*,-15*
O=C1CC(N2CCN(c3ccccn3)CC2)C(=O)N1c1cccc(Cl)c1 (stereo not drawn),1.1,1.6
O=C(Nc1cccc(Cl)c1)c1cc(-c2ccccc2O)on1,1,0.041

7 compounds from above, ordered by SMILES length, ascending.
structure,CBX7 AlphaScr,CBX7 AlphaScr z-score
O=C(c1ccccc1)N1CCn2c1nc1ccccc12,0.95,-1
Cc1cc(Nc2cccc(F)c2)nc(NCc2ccccc2)n1,0.92,-0.26
O=C(Nc1cccc(Cl)c1)c1cc(-c2ccccc2O)on1,1,0.041
O=C1CC(N2CCN(c3ccccn3)CC2)C(=O)N1c1cccc(Cl)c1 (stereo not drawn),1.1,1.6
CCOc1ccc(-c2nc(CSCC(=O)NCCc3ccc(Cl)cc3)c(C)o2)cc1,0.78,-3
CCN1CCCc2cc(CN(CCN3CCOCC3)C(=O)Nc3ccc(C)c(C)c3)ccc21,0.22*,-15*
CCOC(=O)c1ccccc1NC(=O)c1sc2ncn(CC(=O)N3CCOCC3)c(=O)c2c1C,0.98,-0.77
